# Screens as filed in PubChem BioAssay.
# Mtb growth = Mycobacterium tuberculosis H37Rv growth inhibition, cell based, confirmatory dose response (AID 1949). most inactive calls were filed without a number and no value below 0 was filed. inhibition, % at 10 µg/mL; hits with a dose series show IC50 in µg/mL. actives 1.6% (n = 100,000);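 active means confirmed in a dose series; inconclusive means about 50% or more but not retested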;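 further: bacteria grown 7 days with compound before Alamar blue readout; 0% = untreated bacteria and 100% = reference antibiotic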
# An asterisk follows results filed as active; i = inactive; ? = inconclusive. A portion of the library (hit frequency here may not be typical).
SMILES,Mtb growth
Cc1ccc(C)c(OCC(=O)Oc2ccc3c(C)cc(=O)oc3c2)c1,i
CCOC(=O)c1c(-c2ccccc2)oc2cc(Br)c(OC(=O)C(C)(C)C)cc12,13%
CCOC(=O)c1ccc(COC(=O)c2ccccc2NC(C)=O)c(Br)c1,1%
COC(=O)c1c(NC(=O)CN2CCOCC2)sc2c1CCC(C(C)(C)C)C2 (stereo not given),17%
COc1cccc(C2C(C(=O)c3ccco3)=C(O)C(=O)N2CCN2CCOCC2)c1 (stereo not given),i
O=C1CCCS(=O)(=O)c2ccccc21,i
Cc1ccccc1NC(=O)C1CC(=O)OC1c1ccccc1 (stereo not given),i
CC1(C)NC(=O)N(CCCCOc2cccc(C(F)(F)F)c2)C1=O,i
CCOc1cc(C)c(Cl)cc1S(=O)(=O)NCc1ccccn1,i
CCC(C)c1ccc(OCCCNCCOC)cc1 (stereo not given),i
Cc1cc(Br)cc2c1=NC(=O)C=2c1[nH]c(=S)[nH]c1O,2%
COc1ccc(OC)c(NC(=O)C(C)Oc2ccc(C(C)(C)C)cc2)c1 (stereo not given),i
COC(=O)c1sccc1NC(=O)c1ccc(C)o1,0%
COc1ccc(C(=O)Nc2ccc(C(=O)Nc3ccc(OC)cc3OC)cc2)cc1,i
Fc1ccccc1CSc1nnc(-c2cccnc2)n1-c1ccccc1,i
COc1ccc(CCNC(=O)CN(C)S(=O)(=O)c2ccc(Cl)cc2)cc1OC,i
O=C(Nc1ccon1)C1CCN(S(=O)(=O)c2cccs2)CC1,i
O=C(C(c1ccccc1)c1ccccc1)N1CCCC1,i
O=C1c2ccccc2C(=O)c2c1nc1ccccn21,2.9µg/mL*
CC(=O)Oc1cccc(C(=O)Nc2ccccc2C(F)(F)F)c1,0%

# Some of the entries so far, tab-delimited:
Compound	Mtb growth
CCOc1cc(C)c(Cl)cc1S(=O)(=O)NCc1ccccn1	i
CCC(C)c1ccc(OCCCNCCOC)cc1 (stereo not given)	i
COc1ccc(CCNC(=O)CN(C)S(=O)(=O)c2ccc(Cl)cc2)cc1OC	i
CCOC(=O)c1c(-c2ccccc2)oc2cc(Br)c(OC(=O)C(C)(C)C)cc12	13%
Fc1ccccc1CSc1nnc(-c2cccnc2)n1-c1ccccc1	i
Cc1cc(Br)cc2c1=NC(=O)C=2c1[nH]c(=S)[nH]c1O	2%
COc1ccc(C(=O)Nc2ccc(C(=O)Nc3ccc(OC)cc3OC)cc2)cc1	i
Cc1ccccc1NC(=O)C1CC(=O)OC1c1ccccc1 (stereo not given)	i

# Carrying on.
SMILES,Mtb growth
O=C(NC(NC(=O)C(c1ccccc1)c1ccccc1)c1cccc([N+](=O)[O-])c1)C(c1ccccc1)c1ccccc1,i
CS(=O)(=O)N(CC(=O)Nc1ccc(F)cc1F)c1cccc(Cl)c1Cl,i
CC(=O)n1c2ccc(C)cc2c2nc3ccccc3nc21,3%
COCc1nnc(NC(=O)COc2ccc([N+](=O)[O-])cc2)s1,i
COc1ccc(C(=O)Nc2nc(C)cc(C)n2)cc1OC,i
COc1ccc(C(NC(=O)CCN2C(=O)c3ccccc3C2=O)c2ccccc2)cc1 (stereo not given),i
O=C(CSc1nnc2ccccn12)N1CCOCC1,i
COc1ccc(S(=O)(=O)N2CCn3c2nc2ccccc23)cc1,i
CCN(CC)C(=O)C(=O)Nc1ccc2c(c1)OCCO2,i
C=CCSc1nnc2c(n1)OC1(Nc3ccccc3-2)C(=O)Nc2ccc(Br)cc21 (stereo not given),0%
CSc1nc2ccccc2n1C(=O)c1ccc(S(=O)(=O)N2CCCCC2)cc1,i
CCOC(=O)COc1ccc(S(=O)(=O)Nc2ccc(CC)cc2)cc1,7%
COc1ccccc1NS(=O)(=O)c1ccc2c3c(cccc13)C(=O)N2,i
CC1CCN(S(=O)(=O)c2ccc(NC(=O)COc3ccc(Br)cc3)cc2)CC1,i
CCCN(CCC)S(=O)(=O)c1ccc(NS(=O)(=O)c2c(C)cc(C)cc2C)cc1,i
COc1cc(NC(=O)C(C)(C)Oc2ccc(Cl)cc2)cc(OC)c1,i
CC(C)c1ccc(OCC(=O)O/N=C(\N)c2ccccn2)c(Br)c1,i
COc1ccc(S(=O)(=O)N(CC(=O)Nc2ccc3c(c2)OCO3)c2cccc(Cl)c2)cc1,i
CCN(CC)C(=O)C1CCCN(c2ccc([N+](=O)[O-])cc2S(=O)(=O)N2CCCC2)C1 (stereo not given),1%
CCOC(=O)Cc1csc(Nc2ccccn2)n1,i
Cc1ccc(N(C(=O)C23CC4CC(CC(C4)C2)C3)C2C=CS(=O)(=O)C2)cc1 (stereo not given),i
N#Cc1ccccc1NC(=S)NC(=O)Cc1ccccc1,i
Cn1c(SCC(=O)NCCc2ccccc2)nnc1-c1ccco1,i
CCc1cc(C(=O)OC)c(NC(=S)Nc2ccc(S(=O)(=O)N3CCOCC3)cc2)s1,i
O=c1[nH]c(CN2CCN(c3ccc(F)cc3)CC2)nc2ccccc12,i
COc1ccc(C(=O)COc2ccc3c(=O)c(-c4ccccc4OC)coc3c2)cc1,1%
CCN1CCN(c2ccc(N)cc2Cl)CC1,i
CC(=O)c1cccc(NC(=O)Nc2ccc(Oc3ccccc3)cc2)c1,1%
CC(=O)Nc1ccc(S(=O)(=O)N2CCN(c3ccc(C)c(C)c3)CC2)cc1,i
Cc1ccc(CN(c2ccc(C(=O)NCc3ccc(Cl)cc3)cc2)S(C)(=O)=O)cc1,i
O=C(CSc1nnc(-c2ccco2)n1-c1ccccc1)c1cccc([N+](=O)[O-])c1,i
COc1ccc(CN2CCN(Cc3ccc(Br)cc3)CC2)cc1OC,i
O=C(CN1C(=O)C2C3CCC(C3)C2C1=O)Nc1ccc(F)cc1 (stereo not given),i
O=C(Nc1ccccc1Oc1ccccc1)c1cnccn1,i
O=C(O)c1ccc(NC(=S)NC(=O)c2ccccc2[N+](=O)[O-])cc1Cl,i
CC1CN(S(=O)(=O)c2ccc(Cl)s2)CC(C)O1 (stereo not given),i
O=c1nc(N2CCOCC2)nc2n1CCO2,i
CC(=O)c1ccccc1OCC(O)Cn1cnc2ccccc21 (stereo not given),i
COc1ccc(C=O)cc1OCc1cccc(F)c1,1%
COc1cc2cc(-c3nc4ccccc4[nH]3)c(N)nc2cc1OC,3.2µg/mL*
CC(C)NC(=O)c1ccccc1NS(=O)(=O)c1ccccc1[N+](=O)[O-],i
O=C(O)c1cn(-c2ccccc2)nc1-c1ccc([N+](=O)[O-])cc1,i
CC(C)NS(=O)(=O)c1ccc(OCC(=O)N2CCN(Cc3ccccc3)CC2)cc1,i
CCCC(=O)Nc1sc(Cc2ccccc2)c(C)c1C(N)=O,i
O=Cc1cc2cc3c4c(c2oc1=O)CCCN4CCC3,1%
O=C(Nc1ccccc1C(=O)N1CCCCC1)C1CCCCC1,i
Cc1ccc2nc(/C(C#N)=C\c3cccn3C)[nH]c2c1,6%
NC(=NOCC(=O)Nc1cccc2ccccc12)c1nonc1N,i
CC(C)Oc1ccc(Br)cc1C=O,i
OCCCNc1nc(-c2ccccc2Cl)c2cc(Br)ccc2n1,16%
COc1ccc(NC(=O)C2CC(=O)OC23CCOC(C)(C)C3)cc1 (stereo not given),i
COc1ccc(C(=O)NC(=S)Nc2ccc(C)cc2Br)cc1,i
CC(C)NS(=O)(=O)c1ccc(OCC(=O)Nc2cccc(C(F)(F)F)c2)cc1,i
CC(CCc1ccccc1)NC(=O)c1ccc(Cl)cc1[N+](=O)[O-] (stereo not given),3.7µg/mL*
O=C1c2ccccc2C(=O)N1CCN1CCOCC1,i
Cc1ccnc(N2C(=O)c3cccc4c([N+](=O)[O-])ccc(c34)C2=O)c1,1.4µg/mL*
O=C(Nc1ccc(C(F)(F)F)cc1)Nc1cccc(Cl)c1,0.2µg/mL*
O=C(CSCc1cccc(Cl)c1)Nc1ccccc1-c1ccccc1,i
COc1ccc(OC)c(NC(=O)CSc2nnc(-c3ccc(NC(=O)c4ccccc4Cl)cc3)n2C)c1,4%
CCOC(=O)c1cc(-c2ccccc2)sc1NC(=S)NNC(=O)c1cn(C)c2ccccc12,i

# Following part.
SMILES,Mtb growth
Cc1[nH]c2ccc(-c3n[nH]c(=S)n3Cc3ccccc3)cc2c1C,i
COC(=O)c1ccccc1NC(=O)NCc1ccco1,i
CCN(CC)S(=O)(=O)c1cc(C(=O)Nc2nnc(-c3ccccc3)s2)ccc1Br,i
O=C(Nc1nc2c(Cl)cccc2s1)c1cccnc1,i
Cc1cccnc1Nc1nc(-c2sc(N)nc2C)cs1,0%
O=C(CN1C(=O)c2ccccc2C1=O)Oc1ccc(OCc2ccccc2)cc1,i
Clc1ccccc1COc1cccc(CNCc2cccnc2)c1,5%
COc1ccc(OC(=O)COc2cccc(C)c2)cc1,i
C=CCN1C(=O)/C(=C\c2cccc(OC)c2O)C(C(=O)OC)=C1C,i
O=C(C(Cc1ccccc1)N1C(=O)c2ccccc2C1=O)N1CCc2ccccc2C1 (stereo not given),i
CCOc1ccc(C2C3=C(CC(C)(C)CC3=O)Nc3ncnn32)cc1 (stereo not given),i
CCOc1ccccc1NC(=O)CN(C1CCCCC1)S(=O)(=O)c1ccc(Cl)cc1,i
CCN(C(=O)c1ccccc1)c1ccc(N(CC)C(=O)c2ccccc2)cc1,i
Cc1ncsc1CCSc1n[nH]c(=O)n1-c1ccccc1,4%
CC(C)(C)C(=O)NCCCNC(=O)C(C)(C)C,5%
O=C(Nc1c(F)cc(F)cc1Br)c1ccc(Cl)s1,?
Cc1ccc(NS(=O)(=O)c2ccc(CCC(=O)Nc3ccccc3F)cc2)cc1,6%
CN(C)c1nc(-c2ccccc2)c(C=O)c(=O)o1,i
N#CCSCC(=O)Nc1ccc(Cl)cc1,i
CC(C)(C)C(=O)Nc1cccc(C(=O)Nc2ccc(I)cc2)c1,i

# Six records drawn at random from the list so far, as already listed:
SMILES,Mtb growth
CCN(C(=O)c1ccccc1)c1ccc(N(CC)C(=O)c2ccccc2)cc1,i
O=C(CN1C(=O)c2ccccc2C1=O)Oc1ccc(OCc2ccccc2)cc1,i
Clc1ccccc1COc1cccc(CNCc2cccnc2)c1,5%
Cc1cccnc1Nc1nc(-c2sc(N)nc2C)cs1,0%
COc1ccc(OC(=O)COc2cccc(C)c2)cc1,i
CCN(CC)S(=O)(=O)c1cc(C(=O)Nc2nnc(-c3ccccc3)s2)ccc1Br,i

# Additional structures:
SMILES,Mtb growth
CCOC(=O)c1cc2ccc(OC(C)=O)cc2oc1=O,i
CC1=C(C(=O)OC(C)C)C(c2cccs2)n2c(s/c(=C3\C(=O)N(C)c4ccccc43)c2=O)=N1 (stereo not given),i
O=S(=O)(NCc1ccco1)c1ccc(-c2ccc(Cl)cc2)cc1,i
CCOc1ccc(-c2noc(CCC(=O)NCc3ccccc3)n2)cc1OC,i
COC(=O)COc1ccc(S(=O)(=O)Nc2ccccc2C(F)(F)F)cc1,i
COc1ccc(CNC(=S)Nc2cccc(C(F)(F)F)c2)cc1OC,1%
Clc1cccc(-n2nnc(-c3ccccc3)n2)c1,1%
N#C/C(=C\c1ccc(OC(=O)C2CC2)cc1)S(=O)(=O)c1ccccc1,0%
CCCSc1nnc(NC(=O)c2ccccc2Cl)s1,i
Cc1ccc(CC(=O)Nc2ccc(C)cc2)cc1,2%
O=C(O)/C=C/C(=O)Nc1ccccc1OC(F)F,i
CC1(C)Cc2c(c(=S)nc(-c3ccccc3)n2Cc2ccccc2Cl)CO1,1%
COc1ccc(OC)c(-c2cc(C(=O)Nc3cc(C(F)(F)F)ccc3F)c3ccccc3n2)c1,i
CCOC(=O)c1c(NC(=O)c2ccccc2Br)sc(C(=O)N(C)C)c1C,i
Cc1ccccc1NC(=O)c1c(C)nc(Nc2nc3ccccc3o2)nc1C,i
CC(Nc1nc2ccccc2n1C)c1cc(Cl)ccc1O (stereo not given),?
c1ccc(CCN(Cc2ccccc2)C2CCN(Cc3cccnc3)CC2)cc1,4%
Cc1cc(C(C)(C)C)oc1C(=O)N1CCN(C(=O)c2oc(C(C)(C)C)cc2C)CC1,1%
OCCNC(=S)Nc1ccccc1F,i
CC1CCCCN1S(=O)(=O)c1ccc(NC(=O)c2cc3ccccc3oc2=O)cc1 (stereo not given),10%

# Structures from the list above that contain an NH in an aromatic ring:
SMILES,Mtb growth
Cc1cc(Br)cc2c1=NC(=O)C=2c1[nH]c(=S)[nH]c1O,2%
O=c1[nH]c(CN2CCN(c3ccc(F)cc3)CC2)nc2ccccc12,i
COc1cc2cc(-c3nc4ccccc4[nH]3)c(N)nc2cc1OC,3.2µg/mL*
Cc1ccc2nc(/C(C#N)=C\c3cccn3C)[nH]c2c1,6%
Cc1[nH]c2ccc(-c3n[nH]c(=S)n3Cc3ccccc3)cc2c1C,i
Cc1ncsc1CCSc1n[nH]c(=O)n1-c1ccccc1,4%

# (listing goes on)
SMILES,Mtb growth
N#Cc1c(NC(=O)c2ccccc2)sc2c1CCC2,i
COc1ccc(NC(=O)c2ccco2)cc1NC(=S)NC(=O)c1cc2ccccc2o1,i
Cc1cc(C)nc(SCC(=O)Nc2ncc(Cc3ccc(F)cc3)s2)n1,i
COC(=O)c1c(NC(=O)c2c(-c3ccccc3)noc2C)sc(C(=O)N(C)C)c1C,i
CCn1nnnc1SCCSc1nnnn1CC,4%
O=C1C2=C(NC(=S)NC2c2ccccc2)c2ccccc21 (stereo not given),i
OCC#CC(O)c1sc(Cl)c(Cl)c1Cl (stereo not given),i
CCOc1cc(C(=S)N2CCCCC2)ccc1OC(=O)c1ccccc1[N+](=O)[O-],i
O=S(=O)(Nc1ccc(Cl)c(Cl)c1)c1cccc2ccccc12,5%
CCOC(=O)c1ccc2nc(NC(=O)c3cccc(N4C(=O)CCC4=O)c3)sc2c1,i
CCc1cccc(C)c1NC(=O)CN(c1ccc(F)cc1)S(=O)(=O)c1ccc(OC)c(OC)c1,i
Cc1ccc(C)c(NC(=O)CSCC#N)c1,i
CC1CN(S(=O)(=O)c2ccc(Cl)cc2)CCN1S(=O)(=O)c1ccc(Cl)cc1 (stereo not given),i
COCCCNC(=O)c1c(NC(=O)c2ccccc2Cl)sc2c1CCCC2,5%
O=C(Nc1ccccc1C(=O)N1CCCC1)c1ccccc1CCc1ccccc1,4%
CCOC(=O)c1ccccc1NC(=O)c1ccccc1OC(C)=O,i
CCCOc1cccc(C(=O)Nc2ccc3c(c2)Cc2ccccc2-3)c1,i
O=C(NCCC1=CCCCC1)NC1CCCCC1,40%
O=C(NN1CCOCC1)c1csc2ccccc12,i
